From PubChem
Ecoli growth: E. coli growth inhibition, primary screen, OD600. Escherichia coli growth, 23 h; hits give low values. OD600 absorbance (concentration not given with the values). 0.21% of 330,000 active;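 active means OD600 absorbance below the run mean of sample wells minus 3.6 SD, in any replicate, cut at about 0.56 in these data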;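 further: stock transfer was 300 nL into about 60 µL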
UCH37 inh: inhibitors of human UCH37 deubiquitinase, primary screen, biochemical, Ub-AMC cleavage, fluorescence; Ubiquitin carboxyl-terminal hydrolase isozyme L5 (Homo sapiens), Q9Y5K5; inhibition, % (no concentration beside the values); 0.33% of 330,000 active; purified proteasome/UCH37; AID 588478, 2011;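 active means mean of two replicates above 20%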;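 further: 0% = compound-free wells with enzyme and 100% = wells lacking proteasome; stock transfer was 100 nL into about 20 µL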
Target sequence (Q9Y5K5 whole entry, looked up): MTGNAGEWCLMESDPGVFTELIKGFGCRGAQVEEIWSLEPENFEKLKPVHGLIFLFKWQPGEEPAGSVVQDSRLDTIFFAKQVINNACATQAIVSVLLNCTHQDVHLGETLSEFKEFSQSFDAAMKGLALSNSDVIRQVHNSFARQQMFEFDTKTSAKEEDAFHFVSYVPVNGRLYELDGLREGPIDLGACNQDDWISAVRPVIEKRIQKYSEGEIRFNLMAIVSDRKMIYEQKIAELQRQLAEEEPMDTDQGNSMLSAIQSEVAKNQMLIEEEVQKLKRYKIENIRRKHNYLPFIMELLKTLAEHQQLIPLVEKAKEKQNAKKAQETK
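Material: Human UCH37 enzyme supplied as purified proteasome complex | Schedule: 30 min preincubation with enzyme, 25 min cleavage at room temperature | Detection: AMC fluorescence 355/460 nm | Measure: % inhibition of Ub-AMC cleavage fluorescence | Controls: Wells without proteasome as full block, compound-free enzyme plus substrate as uninhibited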
HNF4A DNA FP: change in binding of human HNF4A to DNA, primary screen, biochemical, fluorescence polarization, FITC-DNA; Hepatocyte nuclear factor 4-alpha (Homo sapiens), P41235; AID 1224865, 2016; 1 h; 0.3% of 360,000 active; activity change, % at 10 µM; in the data active means activity change above about 30%, passing the limit was not always enough;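 further: controls were the assay level and a saturating level of protein; the project sought stronger binding though the title names inhibitors; some compounds called inactive have numbers as strong as hits; positive values seem to mean higher polarization but the record does not say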
Target sequence (P41235 whole entry, looked up): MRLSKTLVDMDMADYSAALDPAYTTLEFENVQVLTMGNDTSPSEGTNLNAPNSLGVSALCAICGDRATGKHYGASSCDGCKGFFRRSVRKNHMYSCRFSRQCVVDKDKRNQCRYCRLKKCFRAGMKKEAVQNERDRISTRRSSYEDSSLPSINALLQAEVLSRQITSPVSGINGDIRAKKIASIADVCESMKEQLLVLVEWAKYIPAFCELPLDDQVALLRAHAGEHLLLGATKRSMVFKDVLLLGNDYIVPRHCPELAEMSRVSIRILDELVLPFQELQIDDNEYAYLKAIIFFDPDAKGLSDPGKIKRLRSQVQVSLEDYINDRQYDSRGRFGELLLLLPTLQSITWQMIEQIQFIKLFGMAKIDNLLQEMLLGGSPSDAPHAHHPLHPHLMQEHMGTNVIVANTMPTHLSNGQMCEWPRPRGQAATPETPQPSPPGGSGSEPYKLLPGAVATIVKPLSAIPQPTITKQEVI
ALR inh: inhibitors of human ALR sulfhydryl oxidase, primary screen, biochemical, H2O2 detection, HRP-luminol luminescence, single point | purified ALR, DTT oxidation | inhibition, % (no concentration beside the values) | AID 485317, 2010 | 3.8% of 290,000 active;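 active means mean and each replicate at 75% or more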;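 further: stock transfer was 7.5 nL into about 7.5 µL; 0% = neutral wells and 100% = wells with inactivated enzyme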
FGF22 binding: binders of human FGF22 protein, primary screen, FGF22 synaptogenesis inhibitor project, biophysical, thermal shift, single point | 1.5% of 340,000 active | recombinant FGF22 thermal shift, SYPRO orange fluorescence; percent of sucrose octasulfate shift, DMSO zero | AID 651658, 2012 | calls only at 9.99 µM;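 active means melting point raised past a set limit in the mean and every replicate; three in four hits are not shown here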
Target sequence (Q9HCT0 whole entry, looked up): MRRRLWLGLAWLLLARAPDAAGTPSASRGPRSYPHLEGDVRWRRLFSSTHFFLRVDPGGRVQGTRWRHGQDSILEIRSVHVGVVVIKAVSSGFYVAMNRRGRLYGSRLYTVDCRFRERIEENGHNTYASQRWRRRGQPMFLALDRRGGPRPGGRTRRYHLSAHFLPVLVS
B2AR ag: beta2AR agonists driving receptor internalization, primary screen, cell-based, FAP fluorogen, flow cytometry; 0.43% of 340,000 active; Am2.2-beta2AR cells; reference of the scale not given here; response, % (concentration not given with the values);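 active means response above a set limit, near 3 SD of response in nonfluorescent compounds, cut at about 42% in these data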;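 further: stock transfer was 100 nL into about 11 µL; a reference agonist was the positive control; negative values mostly stem from fluorescent compounds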
rRNA inh HTS: reduced GFP signal of wild-type E. coli, primary screen, bacterial rRNA inhibitor project, GFP/RFP fluorescence, OD600, single point; E. coli WT GFP vs humanized-ribosome RFP mutants, 24 h; hits give low values; DMSO median 0, no signal -100; GFP signal change (wild-type ribosome), % (concentration not given with the values); 1.6% of 350,000 active; AID 720706, 2013;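 active means significant combined selectivity score with lowered wild-type GFP, culture density cut under 30%, mutant RFP and density less affected; inactive means any of these conditions unmet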; further: one replicate is shown; some compounds called inactive have numbers as strong as hits
rRNA inh HTS OD600: also measured in rRNA inh HTS; calls as there; OD600 change, %; measured here: OD600 growth;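 optical density of the mix in the first replicate; 0 = DMSO median and -100 = no signal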
rRNA inh HTS RFP: further read-out of rRNA inh HTS, marked with its call; RFP signal change, %; measured here: RFP humanized mutant strains;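 first replicate; 0 = DMSO median and -100 = no signal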
An asterisk follows results filed as active; i = inactive; x = no result given; + = active, no number; & = joins results of further samples. Only part of the results is shown. The share of hits here may be higher or lower than overall.

SMILES | Ecoli growth | UCH37 inh | HNF4A DNA FP | ALR inh | FGF22 binding | B2AR ag | rRNA inh HTS | rRNA inh HTS OD600 | rRNA inh HTS RFP
COc1ccc(CCC(=O)NCc2ccccc2Cl)cc1OC | 0.68 | 0.9 | -1.3 | 0 | i | -5 | 9 | 4 | -3.4
O=C1CCSc2ccc(Cl)cc2N1Cc1ccccc1 | 0.82 | 2.5 | -5.3 | -19 | x | -15 | x | x | x
CCn1cc(CNc2nc3nonc3nc2N2CCCCC2)cn1 | 0.71 | 12 | -1.5 | -3 | x | -3 | 1 | -1 | 0.3
COc1ccc(/C=C/C(=O)c2ccc(Cl)s2)cc1O | 0.68 | 1.0 | 3.2 | 50 | x | -8 | x | x | x
Cc1ccc(NC(=O)CCCCCNS(=O)(=O)c2ccc(C)cc2)cc1 | 0.67 | 2.7 | -2.0 | 1 | x | 18 | x | x | x
CC1(C(=O)Nc2ccc3c(c2)OCCO3)CN(S(C)(=O)=O)CC(=O)N1CCCn1ccnc1 (configuration not stated) | x | x | -2.2 | x | i | x | 13 | 7 | -1.0
O=C(NC1CC2CCCC(C1)N2C(=O)NCc1ccccc1)C1CC1 (configuration not stated) | 0.66 | 2.4 | 0.8 | -1 | x | 2 | x | x | x
O=[N+]([O-])c1ccc2nc(C3CCCCC3)[nH]c2c1 | 0.64 | 5.8 | -2.9 | 97* | i | -2 | -2 | -12 | -2.3
Cc1cc2c(c(=O)n1CCN(C)C)C(c1ccccc1Br)C(C#N)=C(N)O2 (configuration not stated) | 0.74 | 3.0 | 0.7 | 9 | x | -14 | x | x | x
CCOC(=O)c1c(NC(=O)Cn2cnc([N+](=O)[O-])n2)sc(C)c1C | 0.67 | 5.7 | -1.2 | -16 | i | 3 | 7 | -6 | -6.3
CC(=Nc1cc(C(=O)c2ccccc2)ccc1N)C1=C(O)CC(C)(C)CC1=O | 0.64 | 5.5 | 3.5 | -10 | i | -17 | -3 | 1 | 1.2
CC(=O)Nc1cc(-c2cccc(C(=O)NCCN(C)C)c2)cn2c(-c3cccc(C(F)(F)F)c3)cnc12 | x | x | 9.2 | x | i | x | -59 | -81 | -19
O=C1C(=Cc2ccco2)C(=O)c2ccccc21 | 0.66 | 5.4 | -4.0 | -7 | x | -7 | x | x | x
CCC(C)NC(=O)CNS(=O)(=O)c1ccc(C)cc1 (configuration not stated) | 0.83 | 1.3 | -2.8 | x | x | 0 | x | x | x
CN(C(=O)COC(=O)c1cc2ccccc2cc1O)c1c(N)n(Cc2ccccc2)c(=O)[nH]c1=O | 0.61 | -2.7 | 0.5 | -22 | i | -14 | -6 | -3 | -1.9
O=C(c1ccco1)N1N=C(c2cccs2)CC1c1ccc(F)cc1 (configuration not stated) | 0.69 | -6.5 | 1.5 | -11 | x | -6 | x | x | x
COc1ncnc2c1ncn2CCCN1CCN(c2ccccn2)CC1 | x | x | 0.9 | x | i | x | 4 | 7 | -0.5
CN1CCCN(c2ccc([N+](=O)[O-])cc2)CC1 | 0.66 | 8.7 | 0.4 | -1 | i | -3 | 6 | 11 | 4.1
COc1ccc(Cl)cc1NC(=O)COC(=O)c1ccc(Cl)nc1 | 0.69 | -2.8 | 13 | -3 | i | -4 | x | x | x
COc1ccc(NC(C)C(=O)Nc2cccc(S(=O)(=O)N3CCOCC3)c2)cc1OC (configuration not stated) | 0.66 | 1.1 | -1.7 | x | i | 5 | 3 | 8 | 0.0
Cc1ccc(NC(=O)NCCCCc2ccccc2)cc1 | 0.7 | 1.2 | -2.8 | -6 | i | -11 | -1 | 4 | 0.4
CCc1cc(C(c2ccccc2OC)N2CCOCC2)c(NC(=O)c2ccccc2)s1 (configuration not stated) | 0.69 | 4.6 | -0.6 | -1 | x | 0 | x | x | x
CC(C)[C@H](N)C(=O)OCCOCn1cnc2c(=O)[nH]c(N)nc21 | x | -1.0&-0.9 | -2.2&0.2 | -14&2 | i | 2&10 | 11 | 16 | 2.1
CCOCCCNC(=O)c1cn(CC)c2ccc(S(=O)(=O)N(C)C3CCCCC3)cc2c1=O | 0.71 | 4.2 | -4.2 | -2 | i | -6 | -8 | -10 | -2.1
COc1cccc(NC(=O)CN2C(=O)NC(C)(c3ccc(C)cc3)C2=O)c1 (configuration not stated) | 0.68 | 0.4 | -2.2 | 0 | i | 6 | -35 | -55 | -10

Arranged by number of heavy atoms (rising): four of the compounds above.
SMILES | Ecoli growth | UCH37 inh | HNF4A DNA FP | ALR inh | FGF22 binding | B2AR ag | rRNA inh HTS | rRNA inh HTS OD600 | rRNA inh HTS RFP
CN1CCCN(c2ccc([N+](=O)[O-])cc2)CC1 | 0.66 | 8.7 | 0.4 | -1 | i | -3 | 6 | 11 | 4.1
O=[N+]([O-])c1ccc2nc(C3CCCCC3)[nH]c2c1 | 0.64 | 5.8 | -2.9 | 97* | i | -2 | -2 | -12 | -2.3
COc1ccc(NC(C)C(=O)Nc2cccc(S(=O)(=O)N3CCOCC3)c2)cc1OC (configuration not stated) | 0.66 | 1.1 | -1.7 | x | i | 5 | 3 | 8 | 0.0
CCOCCCNC(=O)c1cn(CC)c2ccc(S(=O)(=O)N(C)C3CCCCC3)cc2c1=O | 0.71 | 4.2 | -4.2 | -2 | i | -6 | -8 | -10 | -2.1

Next section:
SMILES | Ecoli growth | UCH37 inh | HNF4A DNA FP | ALR inh | FGF22 binding | B2AR ag | rRNA inh HTS | rRNA inh HTS OD600 | rRNA inh HTS RFP
O=C(COc1ccc(-c2ccccc2)cc1)N1CCN(C(=O)c2cccs2)CC1 | 0.69 | 0.8 | -2.1 | -67 | i | -15 | 2 | -6 | -1.1
CCCNC(=S)N1CCC(NC(=O)C23CC4CC(CC(C4)C2)C3)CC1 | 0.72 | 4.1 | 1.9 | -7 | x | -6 | x | x | x
CCN1CCN(C(=S)Nc2ccccc2Cl)CC1 | 0.71 | -0.1 | 1.3 | -4 | x | -11 | x | x | x
CC(=O)Nc1ccc(NC(=O)c2ccc(COc3ccccc3)cc2)cc1 | 0.71 | -0.9 | -2.3 | 1 | i | 1 | 21 | 23 | 0.0
O=C(Nc1ccccc1F)c1ccco1 | 0.69 | 4.2 | 0.4 | -6 | x | 1 | x | x | x
Oc1ccc(Cl)cc1CNc1ccc(Br)cn1 | 0.65 | 6.3 | -0.3 | -3 | x | 0 | x | x | x
O=C(Nc1ccc(Cc2ccncc2)cc1)C1CCC(N2C(=O)C3C4C=CC(C5CC45)C3C2=O)CC1 (configuration not stated) | 0.66 | 0.5 | 2.1 | 4 | x | 5 | x | x | x
O=C(Cn1ccc2ccccc2c1=O)NCCC(=O)N1CCN(c2ccccc2)CC1 | 0.66 | -0.4 | -1.4 | 18 | i | 10 | 6 | 2 | -2.3
CCC(CC)c1nnc(NC(=O)/C=C/c2ccco2)s1 | 0.71 | -1.6 | -2.1 | -2 | x | -2 | x | x | x
Cc1cc(C)n(CCNC(=O)CC2C(=O)NCCN2Cc2ccccc2C(F)(F)F)n1 (configuration not stated) | 0.68 | -4.3 | 0.6 | -1 | i | 0 | 6 | 5 | 5.2
CCCCn1c(CN2CCN(C(=O)OCC)CC2)nc2c1c(=O)n(C)c(=O)n2C | 0.75 | -2.1 | 1.3 | 0 | x | -1 | x | x | x
CC(C)(C)OC(=O)N1CCC[C@H]1C(=O)Nc1ccc(Br)cc1 | 0.68 | 1.5 | 3.1 | -1 | i | 2 | 2 | -1 | 0.3
CNC(=O)c1ccccc1NC(=O)C1CC(=O)N(c2ccc(OC)cc2)C1 (configuration not stated) | 0.69 | 2.6 | 0.2 | -20 | i | 2 | 24 | 17 | 1.5
COC(=O)CNC(c1ccccc1Cl)c1cc(Br)ccc1NC(=O)CCN1CCOCC1 (configuration not stated) | 0.78 | 0.4 | 1.7 | 5 | x | 5 | x | x | x
Cc1cc(C)cc(NC(=O)CCCn2nc(C)c3c(C)n(-c4ccccc4)nc3c2=O)c1 | 0.7 | -0.1 | 1.2 | 2 | i | 4 | 2 | 2 | 0.0
CC1(C)NC(=O)N(CC(O)Cn2c3ccccc3c3ccccc32)C1=O (configuration not stated) | 0.71 | 3.2 | 0.7 | 0 | i | 4 | 4 | 0 | -0.7
COc1ccccc1-c1cccc(-c2nc(C(=O)Nc3nccs3)cc3c2[C@@H](CCO)N(C(=O)CC2CC2)C3)c1 | x | x | 2.2 | x | i | x | -2&-8 | 4&11 | 0.6&5.3
COC(=O)c1sc(-c2ccccc2)cc1NC(=O)C1CC1 | 0.71 | -4.4 | 4.5 | -9 | x | 5 | -27* | -17* | -9.2*
Cc1c(C(c2ccc(F)cc2)c2c(C)n(C)n(-c3ccccc3)c2=O)c(=O)n(-c2ccccc2)n1C | 0.67 | 1.4 | -2.4 | 5 | i | -9 | 3 | -1 | -0.4
O=C(O)c1ccc(C2SCC(=O)N2Cc2ccco2)cc1 (configuration not stated) | 0.72 | -2.1 | 2.3 | -2 | + | 5 | 11 | 3 | 0.3
O=C(CCc1nnc(COc2ccccc2)o1)NCc1ccc(Cl)s1 | 0.65 | -2.9 | -1.6 | -7 | i | -5 | 4 | -11 | -1.4
CCOc1ccc(NC(=O)CN(C)C(=O)c2ccc3c(c2)C(=O)N(CCC(C)C)C3=O)cc1OCC | 0.72 | 0.3 | -3.7 | -6 | i | 1 | -4 | 4 | 0.4
COc1ccc(NC(=O)C2CCN(C(=O)Nc3ccccc3)CC2)cc1S(=O)(=O)N(C)C | 0.63 | 2.2 | -0.5 | 4 | i | 1 | 21 | 14 | 0.1
O=C(NC1CCCC1)C(c1cccs1)N(CC1CCCO1)C(=O)Cc1cccs1 (configuration not stated) | 0.77 | 0.8 | -2.4 | -9 | x | 4 | x | x | x
Cc1ccc(C)c(NC(=O)CN(C)C(=O)c2ccc(S(=O)(=O)N(C)c3ccccc3)cc2)c1 | 0.69 | -0.1 | -2.5 | -5 | i | -1 | -7 | -4 | -1.8
(listing goes on)
SMILES | Ecoli growth | UCH37 inh | HNF4A DNA FP | ALR inh | FGF22 binding | B2AR ag | rRNA inh HTS | rRNA inh HTS OD600 | rRNA inh HTS RFP
CCOC(=O)C1CCCN(C(=O)Cn2c(=O)c3cccn3c3cccnc32)C1 (configuration not stated) | 0.68 | -3.8 | 4.4 | -3 | i | 4 | 16 | 14 | 7.7
COc1cc(OC)nc(Nc2nc(C(N)c3ccccc3Cl)cs2)n1 (configuration not stated) | x | x | 3.4 | x | i | x | -57 | -80 | -17
Cc1cc(OCC(=O)OCC(=O)NC2CCS(=O)(=O)C2)ccc1Cl (configuration not stated) | x | x | 2.4 | x | i | x | 1 | -2 | -5.2
CCOC(=O)CC1COCCN1C(=O)c1cc(COc2ccccc2SC)on1 (configuration not stated) | x | x | 1.0 | x | i | x | -3 | -10 | 0.6
COc1ccc(CN2CCNC(=O)C2CC(=O)N(C)Cc2nccs2)c(OC)c1 (configuration not stated) | 0.66 | -0.7 | 0.0 | -10 | i | -5 | -1 | 1 | 2.2
CCC(CO)Nc1ccn2nc(-c3ccccc3)cc2n1 (configuration not stated) | x | x | 2.6 | x | i | x | -14 | -8 | 0.5
CCCCn1nnnc1C(CC)N1CCN(C/C=C/c2ccccc2)CC1 (configuration not stated) | x | x | 2.2 | x | i | x | 0 | 20 | 8.7
COc1cc(C)c(Br)cc1S(=O)(=O)NCCCN1CCOCC1 | 0.69 | 0.1 | 1.0 | -12 | i | -4 | 16 | 12 | 2.7

Entries listed so far printed as active in ALR inh.
SMILES	UCH37 inh	ALR inh	FGF22 binding	B2AR ag	rRNA inh HTS	rRNA inh HTS OD600	rRNA inh HTS RFP
O=[N+]([O-])c1ccc2nc(C3CCCCC3)[nH]c2c1	5.8	97*	i	-2	-2	-12	-2.3
